D1 antagonist – Antagonist of Human D 1 Dopamine Receptor: qHTS; D(1A) dopamine receptor (Homo sapiens), P21728; HEK293 TREx D1 cells, calcium flux, dopamine EC80; active compounds read low; activity change, negative = inhibition, % at 10 µM; 360,000 tested, 3.2% active; AID 504652, 2011; in the data active = activity change below about -30%; also: % is scaled to controls: 0 for no effect and ±100 for the full control effect
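After overnight tetracycline induction at 30 C, force-coupled D1 HEK293 cells took up a no-wash calcium dye at room temperature. Compounds were added and monitored 180 s, and the response to EC80 dopamine was then recorded.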
RXFP1 agonist – qHTS Assay for Agonists of the Relaxin Receptor RXFP1 | HEK293T-RXFP1 cAMP TR-FRET, 30 min; response scale: percent of porcine relaxin response, buffer zero | Potency, µM (highest dose often 57.5 µM), for inactives: at the highest dose activation, hits mostly activators | AID 2676, 2010 | 370,000 tested, 0.3% active; active = well fitted activation curve with a large enough effect; inconclusive = small, poorly fitted or top-dose-only effect; also: potency is read from the fitted curve at half-maximal effect; % is scaled to controls: 0 for no effect and ±100 for the full control effect; nearly all actives have a fitted effect of over 60% in size; many of its hits are not listed in these tables
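cAMP rise read by TR-FRET after 30 min, 37C compound exposure (up to 58 uM) in RXFP1-transfected HEK293 cells with Ro 20174 present. EC50 from Hill-equation fits, with 29 nM porcine relaxin as 100% and buffer as basal.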
D1 ag – Allosteric Agonists of the Human D1 Dopamine Receptor: qHTS. activation, % at 2 µM. 360,000 tested, 1% active. HEK293 T-REx D1 cells, calcium flux, agonist mode. AID 504660, 2011; in the data active = activation above about 30%; also: 0% is about no effect
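Agonism was scored from calcium flux recorded over 180 s (1 read/s) after pintool compound addition, following a 10-cycle baseline. Cells were inducible force-coupled HEK293 TREx D1, plated overnight at 30 C and loaded with no-wash calcium dye.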
D1 potentiator – Potentiators of Human D1 Dopamine Receptor: qHTS. D(1A) dopamine receptor (Homo sapiens), P21728. HEK293 TREx D1 cells, calcium flux, dopamine EC20 potentiation. potentiation, % at 10 µM. 360,000 tested, 0.036% active; in the data active = potentiation above about 30%; also: 0% is about no effect
D2 potentiator – HTS Assay for Positive Allosteric Modulators of the Human D2 Dopamine Receptor: Primary Screen for Potentiators. D(2) dopamine receptor (Homo sapiens), P14416. HEK293 T-REx D2, calcium flux, EC20 dopamine potentiation. potentiation, % at 10 µM. 340,000 tested, 0.34% active;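 active = potentiation over 3 SD above the plate norm, cut at about 30% in these data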; also: 0% is about no effect
Target sequence (P14416 whole entry, looked up): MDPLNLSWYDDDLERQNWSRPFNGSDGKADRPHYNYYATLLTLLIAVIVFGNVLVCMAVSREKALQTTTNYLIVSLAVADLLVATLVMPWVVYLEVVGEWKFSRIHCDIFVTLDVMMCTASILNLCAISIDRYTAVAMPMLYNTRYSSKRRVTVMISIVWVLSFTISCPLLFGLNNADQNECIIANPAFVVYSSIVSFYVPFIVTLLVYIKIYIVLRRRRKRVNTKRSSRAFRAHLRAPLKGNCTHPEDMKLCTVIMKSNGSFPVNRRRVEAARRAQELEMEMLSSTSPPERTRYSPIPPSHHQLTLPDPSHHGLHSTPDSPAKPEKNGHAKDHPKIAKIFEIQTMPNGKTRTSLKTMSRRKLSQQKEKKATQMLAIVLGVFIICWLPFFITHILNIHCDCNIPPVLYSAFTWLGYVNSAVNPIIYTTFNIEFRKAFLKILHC
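Primary screen. Calcium kinetics in induced HEK293 T-REx D2 cells: compound pre-addition 180 s, EC20 dopamine, 180 s more.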
Numbers without * were called inactive; ? = inconclusive; . = no result given; & = joins results of further samples; ! = a repeat was not active. This is a subset (hit frequency here may not be typical).

Labels used below: A = D1 antagonist; B = RXFP1 agonist; C = D1 ag; D = D1 potentiator; E = D2 potentiator
1: N#Cc1c(-c2cccc(Br)c2)cc(-c2ccco2)[nH]c1=O
  A: 0.0; B: 3.8%; C: 5.2; D: 1.8; E: -3.2

2: COc1ccc(C2CC(c3ccccc3)=NN2C(=O)CCCC(=O)O)cc1 (stereo not drawn)
  A: -13.3; B: -1.6%; C: 0.7; D: -4.2; E: 9.9

3: Cc1nc(-c2ccccc2)c(-c2ccccc2)[nH]1
  A: 7.7; B: 2.4%; C: -0.9; D: -5.3; E: -12.2

4: Cc1cnc(NC(=O)C2=C(O)c3ccccc3S(=O)(=O)N2C)s1
  A: -51.8*!; B: 3.9%&-0.1%&0.5%; C: 2.6&0.2&2.4; D: -5.0&-3.8&0.1; E: -6.7&-8.0

5: Cc1nc2ccc(S(=O)(=O)NCC(=O)NCCN3CCCCCC3)cc2s1
  A: -2.8; B: -0.2%; C: 3.9; D: -1.1; E: -2.9

6: O=C(O)c1cc(NS(=O)(=O)c2cccc3ccccc23)ccc1O
  A: 13.5; B: 0.5%; C: 4.5; D: 0.1; E: -5.4

7: O=C(c1ccc(NS(=O)(=O)c2ccccc2)cc1)N1CCN(c2ccccc2)CC1
  A: 11.7; B: 2.7%; C: 4.4; D: -1.5; E: -1.5

8: Cc1cccc(N2CCN(C(=O)c3cc4c(=O)n(C)c5ccccc5c4n3C)CC2C)c1 (stereo not drawn)
  A: -2.0; B: -0.6%; C: 0.9; D: .; E: 1.0

9: CC(=O)Nc1cccc(-c2nnc(-c3ccc(C)cc3)o2)c1
  A: 26.6; B: ?; C: 3.0; D: 0.6; E: -3.7

By substructure: those above with two or more sulfur atoms.
Labels used below: A = D1 antagonist; B = RXFP1 agonist; C = D1 ag; D = D1 potentiator; E = D2 potentiator
4: Cc1cnc(NC(=O)C2=C(O)c3ccccc3S(=O)(=O)N2C)s1
  A: -51.8*!; B: 3.9%&-0.1%&0.5%; C: 2.6&0.2&2.4; D: -5.0&-3.8&0.1; E: -6.7&-8.0

5: Cc1nc2ccc(S(=O)(=O)NCC(=O)NCCN3CCCCCC3)cc2s1
  A: -2.8; B: -0.2%; C: 3.9; D: -1.1; E: -2.9

3 entries picked at random from the list so far:
Labels used below: A = D1 antagonist; B = RXFP1 agonist; C = D1 ag; D = D1 potentiator; E = D2 potentiator
3: Cc1nc(-c2ccccc2)c(-c2ccccc2)[nH]1
  A: 7.7; B: 2.4%; C: -0.9; D: -5.3; E: -12.2

4: Cc1cnc(NC(=O)C2=C(O)c3ccccc3S(=O)(=O)N2C)s1
  A: -51.8*!; B: 3.9%&-0.1%&0.5%; C: 2.6&0.2&2.4; D: -5.0&-3.8&0.1; E: -6.7&-8.0

8: Cc1cccc(N2CCN(C(=O)c3cc4c(=O)n(C)c5ccccc5c4n3C)CC2C)c1 (stereo not drawn)
  A: -2.0; B: -0.6%; C: 0.9; D: .; E: 1.0

Looked up above.
compound 4 – D2 potentiator: -6.7&-8.0
compound 1 – D2 potentiator: -3.2
compound 2 – D1 antagonist: -13.3

Screens (PubChem)
